Mtb MbtI inh: MbtI salicylate synthase inhibitors, primary screen, biochemical, fluorescence intensity. inhibition, %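 (about 17 µg/mL by stock and volumes)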. purified MbtI enzyme, fluorescence intensity read-out. 100,000 tested, 0.89% active. P9WFX0. AID 493033, 2011;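 active = above 50% in both replicates, above 80% if mildly self-fluorescent; inactive = the rest, strongly fluorescent compounds included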;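 also: 0% = mean of negative and 100% = mean of positive controls; one replicate is shown; some compounds called inactive have numbers as strong as hits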
Target sequence (P9WFX0 whole entry, looked up): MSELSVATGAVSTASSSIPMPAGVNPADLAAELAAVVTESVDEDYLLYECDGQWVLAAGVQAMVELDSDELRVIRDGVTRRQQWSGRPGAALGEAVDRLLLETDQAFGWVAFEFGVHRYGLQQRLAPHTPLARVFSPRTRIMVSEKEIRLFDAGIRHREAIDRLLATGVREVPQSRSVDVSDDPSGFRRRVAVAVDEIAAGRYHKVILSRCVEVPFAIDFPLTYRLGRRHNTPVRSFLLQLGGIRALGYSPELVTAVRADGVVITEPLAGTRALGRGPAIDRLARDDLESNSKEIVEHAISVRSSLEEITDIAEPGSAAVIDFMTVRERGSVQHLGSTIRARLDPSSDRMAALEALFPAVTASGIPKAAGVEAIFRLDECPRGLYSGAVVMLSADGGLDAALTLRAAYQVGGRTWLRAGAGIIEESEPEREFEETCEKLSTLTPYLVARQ
Starred values were filed as active, the others as inactive. The list is partial; rates above refer to the full screens.

SMILES	Mtb MbtI inh
CC1CCCC(C)N1c1nnc(N)s1 (configuration not stated)	-4
COc1cc(C(=O)NC2CCN(C)CC2)nc2ccccc12	3
O=C(NCCN1CCCCC1)/C(=N\O)c1ccccc1	1
CCOC(=O)c1ccc(CS(=O)(=O)c2ccc(Cl)cc2)o1	1
N#CSc1sc(N)nc1-c1ccccc1	48
CC(=O)n1cccc1C#N	5
CC(C)(O)C#Cc1ccc(C2NCCS2)cc1 (configuration not stated)	22
COc1ccc(CSC(=N)N)cc1Br	-3
Nc1nnc(N2CCCCC2)s1	-17
O=C(O)C1CSC(c2cccs2)=N1 (configuration not stated)	-4
CCC(C)(C(=O)NC1CCCCC1)N(C)C(=O)c1ccccn1 (configuration not stated)	-2
O=C(NCc1ccccn1)c1ccc2ccccc2n1	-6
O=C1C2CCCC1C(c1ccccc1)NC2c1ccccc1 (configuration not stated)	-8
CC(=O)Nc1scc(-c2ccccc2)c1C(=O)N1CCOCC1	-14
O=C(NC1(C(F)(F)F)Oc2ccccc2O1)N1CCCc2ccccc21	86
O=C(CCS(=O)(=O)c1cccc2nsnc12)NC1CCCCC1	14
CSC1=NC(C)(C)CC12C=CC(=O)C=C2	3
CN1CCC(NC(=O)c2cccs2)CC1	-11
COc1ccc(S(=O)(=O)NCC2CCCO2)cc1C(=O)O (configuration not stated)	-8
CC(C)NC(=O)C1CCN(Cc2cnn(-c3ccccc3)c2-n2cccc2)CC1	-12
Cc1noc(-c2ccccc2O)n1	-12
CC(C)(C)c1[nH]oc(=O)c1N=O	14
O=c1ccn(Cc2ccccc2)c(=O)[nH]1	0
Cc1c(C#N)c(N)c(C(=O)c2ccccc2)n1-c1ccccc1	-8
COc1ccc(CNCC2(O)CCOC(C)(C)C2)cc1 (configuration not stated)	-6
SMILES	Mtb MbtI inh
CN(C)c1ncn(Cc2c(Cl)cccc2Cl)c2ncnc1-2	1
CN(C)C(=O)c1ccc(COc2ccccc2Br)o1	-2
Cc1ccc(CS(=O)(=O)CCC(=O)NCC2CCCO2)cc1 (configuration not stated)	-13
Cc1ccc(CC2CC(=O)N(c3cc(C)on3)C2=O)cc1 (configuration not stated)	0
O=C1Nc2ccccc2C(O)(C(=O)NCc2ccc3c(c2)OCO3)N1c1c(F)cccc1F (configuration not stated)	-2
Cc1nonc1NC(=O)OC(C)C	-15
CC(=O)Nc1cccc(-c2nc3cc(Cl)cc(Cl)c3o2)c1	-58
CCOC(=O)C(CC)Oc1ccc2c(=O)c(-c3ccc(Cl)cc3)coc2c1 (configuration not stated)	-24
N#Cc1cnc(Nc2nc3ccccc3o2)nc1-c1ccccc1	-5
O=c1[nH]c2ccccc2n1Cc1ccc(Cl)cc1	-12
O=C(c1ccccc1)C1C(=O)c2ccccc2C1=O	-9
Cc1cc2ccccc2c(=O)n1CC(=O)NCC(=O)Nc1nc2ccccc2s1	7
CN1CCN(c2cc3c(c4c2[nH]c2ccccc24)C(=O)CC(C)(C)C3)CC1	-89
CC(C)c1ccc(N(C)C(=O)Cc2c(C(=O)O)n(C)c3ccccc23)cc1	6
COC(=O)c1ccc(NC(=O)c2cc3ccccc3o2)cc1	20
CCC(Sc1nc2ccccc2c(=O)n1CCc1ccc(OC)c(OC)c1)C(=O)N1CCOCC1 (configuration not stated)	-4
COc1ccccc1C(CCNCc1cccs1)c1ccco1 (configuration not stated)	-4
O=C(Cn1ccc2ccccc2c1=O)NC1CCCCC1	0
CCCOC(=O)c1cccc(NC(=O)OCC)c1	-10
CCC(Sc1nc(C)cc(=O)[nH]1)C(=O)Nc1sc2c(c1C#N)CCCC2 (configuration not stated)	4
COc1ccccc1OCC(=O)Nc1cc(-c2nc3ccccc3[nH]2)ccc1C	-23
CCCN(CCC)S(=O)(=O)c1ccc(C(=O)OCC(=O)c2ccccc2)cc1	-16
O=C(Cc1ccccc1)NCCCN1CCOCC1	-9
C=CCn1c(=N)n(CC(=O)c2ccco2)c2ccccc21	0
COc1cccc2cc(-c3ccc4c(c3)OCO4)c(=O)oc12	-5
SMILES	Mtb MbtI inh
COC(=O)c1ccc(OCC(O)CNS(=O)(=O)c2ccccc2C(=O)O)cc1 (configuration not stated)	0
Clc1ccccc1-c1nc(C2CCCCC2)no1	-8
CCCCC(=O)Nc1cccc2nsnc12	3
Nc1ccc(CN2CCOCC2)cc1	-1
CCOC(=O)C1(C(=O)O)NC(=O)CC1c1ccccc1 (configuration not stated)	-13
CC(=O)OC(C#CCN1CCOCC1)c1ccccc1 (configuration not stated)	-14
CC1=C(C(=O)N2CCCCC2)S(=O)(=O)C(NC(=O)CC2CCS(=O)(=O)C2)=C1C#N (configuration not stated)	-6
c1ccc(Oc2ccc(CN3CCCCC3)o2)cc1	-3
CCOC(=O)C1Nc2c(ccc(C(=O)O)c2C)C2C=CCC12 (configuration not stated)	3
COC(=O)c1c(NC(=O)C2CSC(c3ccncc3)=N2)sc(C)c1C (configuration not stated)	5
CC(C)(CO)NC(=O)C1CCCNC1=O (configuration not stated)	-6
Nc1nc(O)c(CC(=O)O)s1	-5
CCCCC1(O)CCOC(C)C1 (configuration not stated)	-3
CCc1ccccc1NC(=S)N(CCCN1CCOCC1)Cc1ccccn1	11
CCOc1cc(C#N)c(NC(=O)Cc2cccs2)cc1OCC	-11
c1ccc(CC(NCc2c[nH]c3ccccc23)c2ccccc2)cc1 (configuration not stated)	-11
O=C1c2ccccc2C(=O)N1CC(O)Cn1nnc2ccccc21 (configuration not stated)	-3
Cc1cc2ccccc2c(=O)n1CC(=O)NCCCN1CCC(C)CC1	11
COc1ccc(C2C(C(=O)N3CC(C)CC(C)C3)CCC(=O)N2c2ccc(OC)cc2)cc1 (configuration not stated)	0
CCS(=O)(=O)N1CCC(C(=O)NC2CCCCCC2)CC1	-10
O=C(c1cccc(F)c1)N1CCN(C(=O)C2CC2)CC1	3
CC(=O)OC1CCN(Cc2ccccc2)C(C)C1C (configuration not stated)	-4
Cc1ccc(NC(=O)C2C3c4ccccc4C(c4ccccc43)C2C(=O)O)cc1 (configuration not stated)	3
CC1(C)OC(=O)CC1C(=O)N1CCOCC1 (configuration not stated)	-7
Cc1ccc2cnn(CC(=O)N3CCc4ccccc4C3)c2c1	-14
SMILES	Mtb MbtI inh
O=C1CC(/C=C/c2ccco2)=Nc2ccccc2N1	3
CCOC(=O)c1ccc(NC2=CC(=O)CC(c3ccco3)C2)cc1 (configuration not stated)	-5
COC(=O)c1sccc1N1C(=O)Cn2cccc2C1C(=O)NC1CCC(C)CC1 (configuration not stated)	5
O=C(Nc1cccc2c1C(=O)NC2=O)c1ccc(Oc2ccccc2)cc1	36
COC(=O)C(C)N(C#N)c1nc(C)cc(C)n1 (configuration not stated)	-6
Cc1cc(=O)n(C)c(=O)n1CCN(C)C	2
O=C1NCC2=C1C(c1ccccc1)Nc1ccccc1N2 (configuration not stated)	1
O/N=C/c1ccc2cccc(OCc3ccccc3)c2n1	-143
CCN(CC)C(=O)CSc1nc2cc(Cl)ccc2o1	17
CN(c1ccccc1)c1nc(N2CCCC2)nc(-n2ccnc2)n1	-13
COc1cccc(NC(=O)CCSc2nnc3scc(-c4ccccc4)n23)c1	-16
Cc1cccc(N(C)C(=O)c2cc3c(=O)oc4ccccc4c3s2)c1	-2
CCCCN(Cc1ccccc1)S(=O)(=O)c1cccc2nsnc12	-5
CCOc1ccc(C(=O)OC2CCCN(C)C2)cc1 (configuration not stated)	-12
Nc1cc(=O)[nH]c(=O)n1-c1ccccc1	-6
OCCn1c(CCCCc2nc3ccccc3n2CCO)nc2ccccc21	-7
CCc1ccc(NC(=O)CSc2n[nH]c(=O)n2C2CC2)cc1	44
CCN1C(=O)C(C(=O)c2ccc(OC)cc2)SC1=S (configuration not stated)	-3
CSc1cccc(NC(=S)N(CCN2CCCCC2)Cc2ccco2)c1	2
Cn1ncc2nnn(-c3ccccc3)c(=O)c21	1
O=C(Cc1cc2ccccc2[nH]1)NC(C(=O)Nc1ccc2c(c1)OCO2)c1ccccc1 (configuration not stated)	-2
CCc1cc2c3c(c(=O)oc2cc1OCC(=O)OC)CCCC3	-33
Nc1c(S(=O)(=O)c2ccccc2)nnn1-c1ccccc1	-5
O=C(COC(=O)c1ccc(C(O)c2ccccc2)cc1)c1ccccc1 (configuration not stated)	-10
CCS(=O)(=O)N1CCN(c2nc3ccccc3o2)CC1	0

A stretch from the list above, as a working copy:
SMILES	Mtb MbtI inh
CC1CCCC(C)N1c1nnc(N)s1 (configuration not stated)	-4
COc1cc(C(=O)NC2CCN(C)CC2)nc2ccccc12	3
O=C(NCCN1CCCCC1)/C(=N\O)c1ccccc1	1
CCOC(=O)c1ccc(CS(=O)(=O)c2ccc(Cl)cc2)o1	1
N#CSc1sc(N)nc1-c1ccccc1	48
CC(=O)n1cccc1C#N	5
CC(C)(O)C#Cc1ccc(C2NCCS2)cc1 (configuration not stated)	22
COc1ccc(CSC(=N)N)cc1Br	-3
Nc1nnc(N2CCCCC2)s1	-17
O=C(O)C1CSC(c2cccs2)=N1 (configuration not stated)	-4
CCC(C)(C(=O)NC1CCCCC1)N(C)C(=O)c1ccccn1 (configuration not stated)	-2
O=C(NCc1ccccn1)c1ccc2ccccc2n1	-6
O=C1C2CCCC1C(c1ccccc1)NC2c1ccccc1 (configuration not stated)	-8
CC(=O)Nc1scc(-c2ccccc2)c1C(=O)N1CCOCC1	-14
O=C(NC1(C(F)(F)F)Oc2ccccc2O1)N1CCCc2ccccc21	86
O=C(CCS(=O)(=O)c1cccc2nsnc12)NC1CCCCC1	14
CSC1=NC(C)(C)CC12C=CC(=O)C=C2	3
CN1CCC(NC(=O)c2cccs2)CC1	-11
COc1ccc(S(=O)(=O)NCC2CCCO2)cc1C(=O)O (configuration not stated)	-8
CC(C)NC(=O)C1CCN(Cc2cnn(-c3ccccc3)c2-n2cccc2)CC1	-12
Cc1noc(-c2ccccc2O)n1	-12
CC(C)(C)c1[nH]oc(=O)c1N=O	14
O=c1ccn(Cc2ccccc2)c(=O)[nH]1	0
Cc1c(C#N)c(N)c(C(=O)c2ccccc2)n1-c1ccccc1	-8
COc1ccc(CNCC2(O)CCOC(C)(C)C2)cc1 (configuration not stated)	-6
CN(C)c1ncn(Cc2c(Cl)cccc2Cl)c2ncnc1-2	1
CN(C)C(=O)c1ccc(COc2ccccc2Br)o1	-2
Cc1ccc(CS(=O)(=O)CCC(=O)NCC2CCCO2)cc1 (configuration not stated)	-13
Cc1ccc(CC2CC(=O)N(c3cc(C)on3)C2=O)cc1 (configuration not stated)	0
O=C1Nc2ccccc2C(O)(C(=O)NCc2ccc3c(c2)OCO3)N1c1c(F)cccc1F (configuration not stated)	-2
Cc1nonc1NC(=O)OC(C)C	-15
CC(=O)Nc1cccc(-c2nc3cc(Cl)cc(Cl)c3o2)c1	-58

The list continues:
SMILES	Mtb MbtI inh
c1ccc(-c2noc(-c3ccccc3)n2)cc1	0
CN(C)c1ccc(CNc2ccc(CNc3ncn[nH]3)cc2)cc1	-14
CCOc1ccc(C2C(=O)c3ccccc3C2=O)cc1	0
N#Cc1c(-c2ccccc2)nc(N2CCOCC2)[nH]c1=O	-1
CCc1cc(C(c2cccc(OC)c2)N2CCN(CCO)CC2)c(NC(=O)c2ccccc2)s1 (configuration not stated)	-6
OC1CC2CCC(C1)N2CCc1ccccc1 (configuration not stated)	-2
CC(C(=O)O)N1C(=O)CSc2ncccc21 (configuration not stated)	-3
Cc1ccc(-n2c(=O)oc3ccc(Cl)cc3c2=O)cc1	-27
O=c1ccc(-c2ccccc2)n[nH]1	2
CC1Cc2ccccc2N1C(=O)CCN1C(=O)C2C3C=CC(C3)C2C1=O (configuration not stated)	-1
O=c1[nH]ncc(N2CCOCC2)c1Cl	-2
O=C(c1cc2ccccc2cc1OCC(O)CN1CCCCC1)N1CCCCC1 (configuration not stated)	-13
Cc1cc(Br)ccc1OCCCN1CCN(C)CC1	-14
Cc1ncc(CO)c2c1OC(C)(C)OC2	-8
CN(C)C(=O)c1cnn(-c2ccccc2)c1NC(=O)c1ccc(Br)cc1	-9
CCOc1cc(CNCCc2ccccc2)ccc1OC	-6
CC(C)Cn1ccc(=O)n(CC(C)C)c1=O	-8
NC(=O)C1CCCN(C(=S)NCc2ccc3c(c2)OCO3)C1 (configuration not stated)	50
CC1C(=O)C(C)C(c2cccs2)NC1c1cccs1 (configuration not stated)	-5
COc1nc2c(s1)C(=O)NCCC2	-3
O=C(NCc1ccccn1)c1ccc(COc2ccc(Cl)cc2)o1	-2
CCC1(C)CC(CC#N)(c2ccccc2OC)CCO1 (configuration not stated)	6
Cc1cccc(C)c1OC(=O)C(C)N1C(=O)c2ccccc2C1=O (configuration not stated)	-14
CC(C)c1cc(C(=O)O)n[nH]1	-2
Cc1ccc(-c2nc3ccccc3n3cc4c(=O)n(C)c(=O)n(C)c4c23)cc1	-12
SMILES	Mtb MbtI inh
COc1ccc(Nc2ncnc3c2cnn3-c2ccccc2)cc1	0
CCN(CC)c1cc(C)c2cc(NC(=O)c3ccc(Br)c(OC)c3)ccc2n1	-31
Cc1cccc(OCCCC(=O)Nc2ccc3c(c2)OCO3)c1	-2
CCOC(=O)C(C#N)C(c1ccc(F)cc1)C1CCOC(C)(C)C1 (configuration not stated)	1
CC(C)(CO)NC(=O)c1ccc(Cl)cc1	-11
CC1CCCCN1S(=O)(=O)c1ccc(CCN)cc1 (configuration not stated)	3
CCOC(=O)c1sc2ncnc(N3CCc4ccccc4C3)c2c1C	-3
CC(C)=C1C2CC2C2C(C(=O)O)C12 (configuration not stated)	-8
COC(=O)c1nnc(-c2ccccc2)c(-c2ccccc2)n1	2
O=C(NCc1ccco1)c1cc(-c2ccccc2)c(N2CCOCC2)s1	-19
O=C(Cc1cn(Cc2cccc(Cl)c2)c2ccccc12)Nc1nc2ccccc2s1	-3
O=C(COc1cccc(Cl)c1)Oc1ccc2c3c(c(=O)oc2c1)CCC3	-13
CCCCN(CC)C(=O)c1n[nH]c(=O)c2ccccc12	-4
O=C(NCc1ccco1)c1cc(Cl)cc(Cl)c1	-3
CCOc1ccc(CC(=O)Nc2ccc(C/C(N)=N/O)cc2)cc1OCC	-17
CC1CCN(CC(C)OC(=O)c2cccs2)CC1 (configuration not stated)	-7

Screens (PubChem)
